From PubChem BioAssay
RE007 growth inh = less growth of the S. pombe RE007 Vpr strain; 360,000 tested, 0.21% active; Potency, µM (doses to about 92.2 µM), for inactives: at the top dose activity change, negative = less growth; S. pombe RE007 Vpr strain, BacTiter-Glo ATP luminescence, 24 h; control for the full effect not named in the record; AID 651644; active = well fitted falling curve with a large enough effect; inconclusive = small, poorly fitted or top-dose-only effect; inactive = no such curve, though single readings can be large or run the other way;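 further: on the % scale 0 is the no-effect control and ±100 the full control effect; nearly all actives have a fitted effect of over 50% in size; the assay follows cell death caused by Vpr and the record does not say whether a fall means rescue or toxicity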
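Fission yeast strain RE007, carrying one chromosomally integrated HIV-1 vpr copy, was seeded at OD 0.01 in PMG+AL medium with 23 nL pinned compound. After 24 h at 30 °C and 99% humidity, viability was read by BacTiter-Glo luminescence.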
NS1 function inh = blocks influenza NS1 protein function; S. cerevisiae slowed by influenza A NS1, growth recovery by OD600; Potency, µM (highest dose often 46.1 µM), without a hit: at the top dose activity, positive = more growth; 270,000 tested, 0.4% active; active means well fitted rising curve with a large enough effect; inconclusive means small, poorly fitted or top-dose-only effect; inactive means no such curve, though single readings can be large or run the other way; further: nearly all actives have a fitted effect of over 50% in size
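In this qHTS, NS1 from influenza A is expressed in budding yeast, where it slows growth. Cells are switched from glucose to 2% galactose medium (pH 6.0, -URA), treated with compound, and growth recovery is read at OD600.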
Cruzain inh Det = cruzain (T. cruzi) inhibition with detergent. 200,000 tested, 0.43% active. purified cruzain, Z-FR-AMC fluorescence, 0.01% Triton. Potency, µM, inactives show max response, negative = inhibition, most hits filed as inhibitors. P25779. AID 1478;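 further: plate controls were neutral wells for no effect and buffer without enzyme for full effect; nearly all actives have a fitted effect of over 40% in size; top concentration of the series not given in the record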
Target sequence (P25779 123-467 limits assumed): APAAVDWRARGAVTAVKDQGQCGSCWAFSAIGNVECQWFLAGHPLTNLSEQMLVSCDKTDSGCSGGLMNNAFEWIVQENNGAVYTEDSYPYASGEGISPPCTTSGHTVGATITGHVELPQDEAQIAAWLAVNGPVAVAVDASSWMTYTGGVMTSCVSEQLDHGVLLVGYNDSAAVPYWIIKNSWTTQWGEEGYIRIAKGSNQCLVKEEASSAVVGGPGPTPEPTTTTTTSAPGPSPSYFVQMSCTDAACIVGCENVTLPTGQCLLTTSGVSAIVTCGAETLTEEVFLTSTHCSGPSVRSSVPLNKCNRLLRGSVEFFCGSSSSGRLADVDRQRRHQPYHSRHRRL
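15 min RT preincubation of 1.5 nM cruzain with compound, then 2 uM Z-FR-AMC added; kinetic AMC fluorescence, 60 s delta. Triton X-100 0.01%, pH 5.5.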
SARS PLP yeast = blocks SARS-CoV papain-like protease in a yeast assay | S. cerevisiae expressing SARS-CoV PLpro, growth rescue; control for the full effect not named in the record | Potency, µM (series often up to 32.9 µM), for inactives: top-dose activity, positive = growth rescue | AID 485353 | 330,000 tested, 0.19% active; active means well fitted rising curve with a large enough effect; inconclusive means small, poorly fitted or top-dose-only effect; inactive means no such curve, though single readings can be large or run the other way; further: 0% is about no effect; nearly all actives have a fitted effect of over 55% in size; growth read by luminescence after 48 h
Lassa entry inh = Lassa virus entry inhibition; AID 540256; 300,000 tested, 1.2% active; Potency, µM (doses to about 37.9 µM), for inactives: at the top dose activity change, negative = inhibition, usual class: inhibitors; Lassa virus pseudotype entry inhibition, cell reporter; control for the full effect not named in the record; active means well fitted inhibition curve with a large enough effect; inconclusive means small, poorly fitted or top-dose-only effect, or effect the other way; inactive means flat fitted curve, though single readings scatter; tested in HEK293 cells; further: on the % scale 0 is the no-effect control and ±100 the full control effect; nearly all actives have a fitted effect of over 50% in size; luciferase read-out
Cruzain noTriton = inhibitors of Trypanosoma cruzi cruzain without detergent. P25779. purified cruzain, Z-FR-AMC fluorescence, no detergent. Potency, µM, for inactives: max response, negative = inhibition, usual class: inhibitors. 200,000 tested, 2.3% active. AID 1476;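 further: plate controls were enzyme without inhibitor for no effect and buffer without enzyme for full effect; nearly all actives have a fitted effect of over 40% in size; top concentration of the series not given in the record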
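Detergent-free condition (0.00005% Triton X-100) in acetate buffer pH 5.5 with DTT. 1.5 nM enzyme and compound were pre-mixed 15 min, then 2 uM Z-FR-AMC substrate added; reaction progress from fluorescence change between first and third reads (60 s).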
StopGo reporter = FMDV 2A StopGo reporter, luciferase signal; Potency, µM (top dose mostly 57.9 µM), inactives show at the top dose signal change, negative = less light; 410,000 tested, 1.2% active; human cells with a luciferase reporter of 2A StopGo recoding; control for the full effect not named in the record; active = well fitted falling curve with a large enough effect; inconclusive = small, poorly fitted or top-dose-only effect; inactive = no such curve, though single readings can be large or run the other way; tested in HEK293T cells; further: on the % scale 0 is the no-effect control and ±100 the full control effect; nearly all actives have a fitted effect of over 45% in size; luciferase light after 4 h
Marburg entry inh = inhibitors of Marburg virus binding or cell entry; Marburg virus pseudotyped entry inhibition, cell reporter; control for the full effect not named in the record; about a third of the inactives were read at about 46 µM; Potency, µM (series often up to 37.8 µM), inactives show top-dose activity change, negative = inhibition, hits mostly inhibitors; 300,000 tested, 1.8% active; AID 540276; active = well fitted inhibition curve with a large enough effect; inconclusive = small, poorly fitted or top-dose-only effect, or effect the other way; inactive = flat fitted curve, though single readings scatter; tested in HEK293 cells; about a fifth of its hits are not listed in these tables; further: on the % scale 0 is the no-effect control and ±100 the full control effect; luciferase read-out
Numbers without * were called inactive; ? = inconclusive; nt = no result given; & = joins results of further samples; [ ] = dose if it differs, or a comment. Unless noted, the call rests on the fitted dose curve; in most records, active means well fitted curve in the direction sought with a large enough effect; inconclusive means small, poorly fitted or top-dose-only effect, or another doubt; inactive means no such curve, though single readings can be large; an effect the other way counts as inactive or inconclusive. Potency means the concentration at half of the fitted maximal effect. Rows were taken by chance, and some 4.6% of all compounds hit somewhere here.

structure | Lassa entry inh | RE007 growth inh | Marburg entry inh | StopGo reporter | Cruzain noTriton | NS1 function inh | SARS PLP yeast | Cruzain inh Det
COC(=O)c1sc(NC(=O)COc2ccccc2OC)nc1C | 17% | -1% | 6% | nt | -1% | -13% | -3% | 5.6%
Cc1ccc2ncc(C(=O)N3CCN(c4ccccc4F)CC3)c(=O)n2c1 | nt | nt | -7%[46.1 µM] | -1% | -11% | nt | nt | -5.2%
CCOc1ccccc1NC(=O)C(Cc1ccccc1)NS(=O)(=O)c1ccc2c(c1)oc(=O)n2C (stereo not drawn) | 7%[46.1 µM] | nt | 4%[46.1 µM] | 4% | 2% | nt | nt | 2.3%
CC(C)Cc1ccc(/C=C/C(=O)NC2CC2)cc1 | -20% | 0% | 18% | 47%[activator] | 8% | -32% | -33% | -2.1%
CCn1c(-c2ccc(F)cc2)n[nH]c1=S | 18% | 17% | 16% | -4% | 1% | 6% | 3% | 3.2%
CC1CCCCN1c1csc2ccc(F)cc2c1=O (stereo not drawn) | 19%[46.1 µM] | nt | nt | 39%[activator] | -9% | nt | nt | -3.3%
CCOC(=O)CSC1=NC(=O)/C(=C\c2ccc(OC(C)=O)cc2)S1 | ? | ? | 8.2µM* | 22% | -5% | -37% | -17% | -3.6%
COc1ccc(-n2c(SCc3ccccn3)nc3c(c2=O)SCC3)cc1OC | -30% | -7% | ? | -20% | nt | nt | 2% | nt
COCCN(C(=O)c1csnn1)C(C(=O)NC1CCCCC1)c1ccc(Cl)cc1 (stereo not drawn) | ? | 8% | ? | 12% | nt | 4% | 0% | nt
CCOc1ccc(NC(=O)c2cc(S(=O)(=O)N3CCCCC3)c[nH]2)cc1 | -13%[46.1 µM] | -20% | nt | 18%&35% | -2% | 13% | 6% | -4.2%
Cc1cccc(NC(=O)c2cc(Cl)sc2Cl)c1C | 1% | -1% | ? | -11% | 10% | 2% | 14% | -0.5%
Cc1ccc(-n2[nH]c3c4c(ccc3c2=O)C(=O)c2ccccc2C4=O)cc1 | 6% | -8% | ? | -14% | ? | 2% | 12% | -1.7%
COc1ccc(S(=O)(=O)N(C)C)cc1NC(=O)CSc1nncs1 | 17% | -11% | -1% | -1% | nt | 3% | 3% | nt
CNS(=O)(=O)c1cc(N(C)S(=O)(=O)c2ccc(C)cc2)c(C)cc1C | -29%[46.1 µM] | 3% | ? | 10% | nt | 1% | 0% | nt
O=C(O/N=C/C1=C(Cl)c2ccccc2CC1)c1ccc(F)cc1 | -1% | -2% | ? | 6% | -4% | -5% | -8% | 1.1%
COc1cccc(Nc2nc(-c3sc(NC(=O)c4ccco4)nc3C)cs2)c1 | nt | 20% | nt | ? | ? | 11% | 3% | -1.4%
CC(CNC(=O)Cc1ccc(NC(=O)N2CCSc3ncccc32)cc1)c1ccccc1 (stereo not drawn) | -14%[46.1 µM] | nt | nt | ? | -16% | nt | nt | -11%
CCc1ccc(Nc2nc(N)nc(CSc3nnnn3-c3ccccc3)n2)cc1 | ? | 13% | ? | 0% | 10% | 1% | 7% | 2.6%
Cc1c(-c2ccc(Cl)cc2)c(=O)oc2ccc(OC(=O)N3CCOCC3)cc12 | -30%[46.1 µM] | nt | nt | 22% | ? | nt | nt | -3.6%
CCCCCOC(=O)C(C)Sc1n[nH]c(=O)[nH]c1=O (stereo not drawn) | 9% | 5% | 16% | -17% | nt | nt | 1% | nt
O=C(Cn1[nH]c(=O)c2ccccc2c1=O)NC1CCN(Cc2ccccc2)CC1 | ? | -12% | -7% | -25% | 10% | -8% | 5% | 4.6%
CCCCn1c(N)c(N(CC(C)C)C(=O)c2cc(=O)[nH]c3ccccc23)c(=O)[nH]c1=O | 3% | -1% | 9%[46.1 µM] | 7% | nt | nt | -3% | nt
CC(=O)Nc1ccc(C(=O)Nc2cccc(-c3cnc4ccccc4n3)c2)cc1 | -10% | -11% | 24%[46.1 µM] | 22% | nt | nt | -10% | nt
CC1CN(c2nnnn2-c2ccccc2)CC(C)O1 (stereo not drawn) | -1% | 4% | 0% | -21% | -2% | 9% | 2% | 5.4%
COc1cc2c(cc1OC)CN(C(=O)c1ccc(S(=O)(=O)N3CCCC3)cc1)CC2 | nt | 0% | nt | 11% | nt | -6% | 0% | nt
CCOCCCNC(=O)C(NC(=O)c1ccc2c(c1)OCO2)c1ccc(OC)cc1 (stereo not drawn) | -19% | 8% | -9% | -20% | 2% | -23% | -2% | 5.0%
Cc1ccc(CN(C(=O)c2ccc([N+](=O)[O-])cc2)C2CCS(=O)(=O)C2)o1 (stereo not drawn) | nt | -5% | nt | -19% | nt | 2% | 1% | nt
CCN(CC)c1nc2c(c(=O)n(C)c(=O)n2C)n1CC(=O)c1ccccc1 | 23% | -7% | ? | -5% | nt | -5% | 5% | nt
Cc1cccc(N(CC(=O)NC2CCCC2)C(=O)c2csnn2)c1C | 4%[46.1 µM] | -16% | 10%[46.1 µM] | 3% | nt | -1% | 1% | nt
Oc1ccccc1N1CCN(c2nnnn2-c2ccccc2)CC1 | nt | -7% | nt | -29% | nt | -3% | -1% | nt
Cn1c(=O)oc2cc(S(=O)(=O)NC(Cc3ccccc3)C(=O)Nc3ccc(F)cc3)ccc21 (stereo not drawn) | ? | nt | 2%[46.1 µM] | 19% | -4% | nt | nt | 2.0%
CCc1ccc(C(CC(=O)O)N2Cc3ccccc3C2=O)cc1 (stereo not drawn) | ? | -1% | ? | 0% | nt | 4% | -1% | nt
CCC(=O)Nc1nc2nc(-c3ccccc3)cc(=O)n2[nH]1 | -3% | 1% | 3%[46.1 µM] | -2% | nt | 7% | 0% | nt
COc1ccc(/C=N/Nc2nnc(-c3ccccc3)c(=O)[nH]2)cc1 | ? | 1% | 2% | 6% | -17% | -10% | -5% | -0.3%
Cc1ccc(NC(=O)COC(=O)CCC(=O)c2cccs2)cc1 | 2% | -12% | 3% | -4% | 1% | -14% | 3% | -3.2%
COc1cc(NC(=O)C2CCN(c3cnc4ccccc4n3)CC2)cc(OC)c1OC | 12%[46.1 µM] | nt | nt | 0% | 11% | nt | nt | -2.3%
Nc1nc(Cn2nnc(-c3ccccc3Cl)n2)nc(N2CCOCC2)n1 | 5% | 23% | 5% | -15% | 12% | -7% | -3% | 2.2%
CN(/N=C/c1cccnc1)C1=NS(=O)(=O)c2ccccc21 | 0% | -4% | 1% | -4% | -9% | -2% | 10% | -5.6%
CCOc1ccc(NC(=O)Cn2c(=O)oc3cc(S(=O)(=O)N4CCCCCC4)ccc32)cc1 | 3%[46.1 µM] | nt | nt | -19% | -10% | nt | nt | -4.0%
O=C(OC(C(=O)Nc1ccc(Cl)cc1C(F)(F)F)c1ccccc1)c1c(Cl)cccc1Cl (stereo not drawn) | -11% | 22% | ? | ? | -12% | -6% | -3% | -6.0%
COc1cc(C(=O)NC(C)Cc2cccs2)cc(OC)c1OC (stereo not drawn) | ? | 15% | -13%[46.1 µM] | 4% | nt | nt | 1% | nt
CCOc1ccccc1NC(=O)C1CCC(CNc2c(N3CCCCC3)c(=O)c2=O)CC1 (stereo not drawn) | nt | 2% | nt | -20% | nt | -1% | 1% | nt
O=C(CN1CCN(S(=O)(=O)c2ccc(Br)cc2)CC1)Nc1ccccc1C(=O)c1ccccc1 | ? | 24% | ? | -24% | ? | -6% | 12% | -0.3%
CCCC(=O)Nc1nc2ccc(OCC)cc2s1 | ? | -1% | ? | 26% | -4% | -6% | -6% | -4.1%
O=C(N/N=C1\CCc2ccccc21)c1ccccc1Cl | 7% | -8% | ? | 25% | -6% | 13% | 5% | -1.2%
COC(=O)c1[nH]c2ccccc2c1NC(=O)Oc1ccccc1 | 5% | -9% | 7% | 10% | 1% | -3% | 2% | -1.4%
NNC(=O)Cn1c(SCc2ccccc2)nc2ccccc21 | -17% | 6% | 22%&22% | -11% | -1% | 16% | 0% | 2.8%
Cc1ccc(CN2CCSCC2)cc1 | nt | -3% | nt | -4% | nt | -4% | 0% | nt
COc1ccc(Nc2ccc([N+](=O)[O-])cc2[N+](=O)[O-])cc1 | 9% | 4% | 27%[46.1 µM] | -13% | nt | 3% | -2% | nt
CC(=O)NCCC(=O)Nc1ccc(C(N)=O)cc1 | -8% | -3% | 1%[46.1 µM] | 4% | nt | nt | -3% | nt
Cc1noc(/C=C/c2ccco2)c1S(=O)(=O)N1CCC(C(=O)NCc2ccco2)CC1 | -23% | 9% | 3% | -1% | 27% | -12% | 2% | -4.6%
COc1ccc(NC(=O)CSc2nnc(Cc3ccc(C)cc3)c(=O)n2N)cc1OC | -4% | 4% | 12% | -11% | nt | nt | 5% | nt
CCOC(=O)Cn1c(=O)c2c(nc3n2CCCCN3c2ccc(C)cc2)n(C)c1=O | -13% | -1% | -18% | 0% | 17% | -20% | 3% | -14%
CC(=O)Nc1ccc([C@H]2[C@H](C)CC[C@H]3C(=O)N4[C@@H](CC[C@@H](C)[C@@H]4c4ccc(NC(C)=O)cc4)C(=O)N32)cc1 | -13% | nt | 1% | nt | -2% | -25% | 5% | 3.9%
COC(=O)CCc1c(C)c(C#N)c2nc3ccccc3n2c1N1CCCC1 | -30%[14.3 µM] | 2% | 1% | -9% | ? | 2% | -4% | -1.0%
S=C(NC1CCCCC1)N1CCN(C/C=C/c2ccccc2)CC1 | -24% | -23% | ? | -17% | 18% | -13% | -3% | -1.3%
Cn1c(O)c(C=Nc2ccc(Br)cc2)c(=O)n(C)c1=O | 1% | -24% | 2% | 1% | nt | 26% | 4% | nt
CCCCn1c(CCNC(=O)CC)nc2ccccc21 | nt | 4% | nt | -14% | -7% | -2% | 1% | 0.3%
N#Cc1c(C(F)(F)F)cc(-c2cccs2)nc1SCc1ccccc1F | 7%[46.1 µM] | nt | 2%[46.1 µM] | -28% | 3% | nt | nt | -1.1%
COc1ccc(N2CCN(C(=O)CCNS(=O)(=O)c3cccs3)CC2)cc1 | -2% | -14% | 9% | nt | 3% | 8% | -5% | 3.8%
COc1ccc(C)cc1S(=O)(=O)Nc1cccc(-c2cn3cccnc3n2)c1 | nt | 15% | ? | 0% | nt | -4% | -1% | nt
